VACV Venus inh = qHTS for Stage-Specific Inhibitors of Vaccinia Orthopoxvirus: Venus Reporter Primary qHTS | Vaccinia virus Venus reporter expression, fluorescence | Potency, µM (highest dose often 36.5 µM), for the others: at the highest dose activity change, negative = inhibition, usual class: inhibitors | actives 0.46% (n = 330,000); active means well fitted inhibition curve with a large enough effect; inconclusive means small, poorly fitted or top-dose-only effect; inactive means no such curve, though single readings can be large or run the other way; tested in A549 cells; also: nearly all actives have a fitted effect of over 30% in size; inactives centre near -10
Vaccinia mCherry = qHTS for Stage-Specific Inhibitors of Vaccinia Orthopoxvirus: mCherry Reporter Primary qHTS | Vaccinia virus mCherry reporter infection, fluorescence; about a quarter of the inactives have no number | Potency, µM (top dose mostly 36.5 µM), without a hit: at the highest dose activity change, negative = inhibition, most hits filed as inhibitors | actives 0.63% (n = 310,000) | AID 720579, 2013; active = well fitted inhibition curve with a large enough effect; inconclusive = small, poorly fitted or top-dose-only effect; inactive = no such curve, though single readings can be large or run the other way; tested in A549 cells; also: nearly all actives have a fitted effect of over 35% in size; inactives centre near -10
* marks the source's active call; other numbers are inactive results; i = inactive; ? = inconclusive; . = not tested or not shown; [ ] = remark or other dose. % is scaled to controls: 0 for no effect and ±100 for the full control effect; potency is read from the fitted curve at half-maximal effect.

Below each compound – VACV Venus inh, Vaccinia mCherry
Cc1ccc(NC(=O)CCN2C(=O)NC(C)(C)C2=O)cc1F
    6%, 5%
CCOc1ccc(NC(=O)c2ccc3c(SCC(=O)O)c4c(nc3c2)CCC4)cc1
    5%, 0%
COc1ccc(NC(C)C(=O)N/N=C/c2cc(Br)ccc2OC)cc1 (configuration not stated)
    -9%, -19%
CCCCc1nnc(SCc2cc(=O)c3cc(C(=O)OCC)ccc3[nH]2)n1C
    -5%, -4%
CCn1cc(S(=O)(=O)c2ccc(OC)cc2)c(=O)c2cc(F)c(N3CCC(C)CC3)cc21
    -13%, -7%
COc1ccccc1C(=O)NCCC(=O)N(C)Cc1cccs1
    -11%, -17%
C/C(=N\NC(=S)Nc1ccc(F)cc1)c1ccc2c(c1)OCCO2
    ?, -24%
Nc1ccc2ccc3cccc[n+]3c2c1
    18%, 3%
Cc1cccc(NC(=O)COC(=O)CN2C(=O)c3ccccc3C2=O)c1C
    -10%, i
O=C(Nc1ccccc1)C(Cc1ccccc1)c1ccccc1 (configuration not stated)
    -11%, -3%
Cn1c(=O)c2c(nc(CN3CCN(C(=O)c4ccco4)CC3)n2Cc2ccccc2F)n(C)c1=O
    -9%, 2%
NC(=O)CNCCC(c1ccccc1)c1ccccc1
    -15%, -19%
Fc1ccccc1CNC(=S)NC1CCCCC1
    -10%, -7%
CCOCc1nnc(NC(=O)C2CC(=O)N(C3CCCC3)C2)s1 (configuration not stated)
    13%, -5%
CCC(Oc1ccccc1)C(=O)NC1C(=O)N2C1SC(C)(C)C2C(=O)O (configuration not stated)
    -7%, i
O=C(O)C1CCCCC1C(=O)NCc1ccccn1 (configuration not stated)
    -7%, -17%
Clc1ccc(-c2nnc(SCc3nc4ccccc4[nH]3)o2)c(Cl)c1
    ?, .
COc1ccc(CCNC(=O)c2cc(S(=O)(=O)N3CCc4ccccc43)ccc2F)cc1OC
    -16%, ?
Cc1cc2c3c(c1)C1(C(=O)N3C(C)(C)CC2C)C(C#N)=C(N)OC2=C1C(=O)CC(C)(C)C2 (configuration not stated)
    -20%, i
COc1cc(C)ccc1N(CCCN1C(=O)c2cccc3cccc(c23)C1=O)C(=O)c1cccs1
    -21%, -27%
CCSc1nnnn1-c1cccc(C(=O)O)c1
    -3%, -9%
CN(CCCC(=O)Nc1ccccc1F)S(=O)(=O)c1ccc(F)cc1
    -2%, -8%
O=C(O)CC1COc2ccccc2N1C(=O)c1ccccc1Cl (configuration not stated)
    0%, 10%
Cc1[nH]n2c(=O)c3c(nc2c1-c1ccccc1)CCCC3
    -2%, -12%
CCN(CC)C(=O)c1ccc(NC(=O)CCCSc2ccccc2)cc1
    -13%, -4%
CCOc1ccccc1OCCn1nc2ccccc2n1
    -6%, i
CCOc1ccc(NC(=O)/C(C#N)=C\c2ccc(N3CCCC3)c(C)c2)cc1
    14%, -19%
COc1ccc(CCNC(=O)Nc2ccc3nc([C@@H]4O[C@H](CO)[C@@H](O)[C@H](O)[C@H]4O)[nH]c3c2)cc1Br
    7%, 2%
O=C(NCc1ccc(F)cc1)c1cc(C2CCCCN2C(=O)c2ccc3c(c2)CCO3)on1 (configuration not stated)
    -13%, -10%
COCCOC(=O)C1=C(C)NC(=O)NC1c1cn(-c2ccccc2)nc1-c1cccs1 (configuration not stated)
    -11%, .
CCCCC#Cc1cncc(C(=O)NN)c1
    -18%, -22%
CCOc1ccc(NC(=O)Cn2c(=O)n(Cc3ccc4c(c3)OCO4)c(=O)c3ccc(C(=O)NC4CCCCC4)cc32)cc1
    -22%, -9%
CCN1C(=NCc2ccc(OC)cc2)N[C@@H](c2ccccc2)[C@H](C(=O)OC)[C@H]1C
    -11%, -4%
Cc1cc(C)c(Cn2c(=O)n(-c3ccccc3Cl)c(=O)c3c(C)c(C(=O)N(C)C)sc32)c(C)c1
    -6%, -16%
Cc1ccc(NC(=O)C(=O)NCC(c2cccnc2)N2CCN(C)CC2)cc1C (configuration not stated)
    -13%, -7%
NC(=S)N/N=C/c1ccccc1
    ?, 5.6µM*
Cc1cccc(N2CCN(C(=O)Cn3cccc3)CC2)c1C
    -10%, -15%
CC1Cc2cc(/C=C3/SC(N4CCC(C(N)=O)CC4)=NC3=O)ccc2O1 (configuration not stated)
    -10%, i
COc1cc(NS(=O)(=O)c2ccc(NC(=S)NC(=O)c3sc4cc(F)ccc4c3Cl)cc2)nc(OC)n1
    -17%, -3%
Cc1ccc(F)cc1NC(=O)Cn1c(=O)nc(-c2ccccc2F)c2cc(Cl)ccc21
    -11%, -21%
COc1ccccc1Nc1nc(NCc2ccco2)nc(N)c1[N+](=O)[O-]
    -26%, -17%
O=C(CSc1nc2[nH]ncc2c(=O)[nH]1)Nc1ccccc1F
    2%, -16%
COc1cc(OC)c(N(C)C(=O)Nc2cn(CC(C)C)c(=O)c3ccccc23)cc1Cl
    -1%, 8%
CCOC(=O)C1CCN(C=Nc2cc(C)on2)CC1
    -18%, -11%
O=C(CSc1nnc(-c2cccs2)n1-c1ccccc1)Nc1ccccc1
    -9%, -16%
Cc1cccc(C(=O)N2CCCN(C(=O)c3cccc(C)c3)CC2)c1
    -8%, .
O=C(Oc1c(-c2ccccc2)c(=O)n2c3c(cccc13)CC2)c1ccccc1
    -26%, -29%
CN1CCN(c2ccc(NC(=O)c3cccs3)cc2)CC1
    -14%, -13%
C/C(=N\NC(=O)c1c(Cl)c(C)nn1C)c1cccc(NC(=O)C2CCCC2)c1
    -10%, -23%
Nc1c(Cl)ncnc1NCCO
    -11%, i
COc1ccc(-n2c(SCC(=O)C(C)(C)C)nc3ccsc3c2=O)cc1
    -7%, -11%
CCn1c(SCC(=O)Nc2ccc(OC)c(OC)c2)nc2c(c1=O)SCC2
    -9%, -19%
Cc1ccc(CSc2ncnc3c2cnn3-c2ccc(C)cc2)cc1
    -13%, i
CC(C)NC(=O)N1Cc2cc(C(=O)NC3CCCC3)nc(-c3cccc(-c4cccnc4)c3)c2[C@@H]1CCO
    -14%, -10%
O=C(CCc1ccccc1)N=C1SC2CS(=O)(=O)CC2N1c1cccc(F)c1 (configuration not stated)
    8%[7.34 µM], 7%[7.34 µM]
Oc1ccccc1C1=NOC(O)(C(F)F)C1 (configuration not stated)
    -13%, -15%
O=S(=O)(NCc1ccccc1)c1cnc[nH]1
    -18%, .
Cc1ccc2nc(C(C)(C)C)c(Cc3ccsc3)n2c1
    6%, 10%
CN(C(=O)COC(=O)c1cc2c(s1)CCCCC2)c1ccccc1
    -18%, -13%
O=[N+]([O-])c1ccc(-n2cnc3ccccc32)c([N+](=O)[O-])c1
    ?, ?

Other entries:
Below each compound – VACV Venus inh, Vaccinia mCherry
CC1Cc2cccc3c(O)c(C(=O)c4nn[nH]n4)c(=O)n1c23 (configuration not stated)
    ?, ?
NCCCCCCCCCCNS(=O)(=O)c1cccc2c(Cl)cccc12
    ?, -21%
Cc1cc(NC(=O)c2ccccc2)no1
    -3%, -6%
COc1ccc(Cl)cc1C(=O)OCC(=O)N(C)CC(=O)Nc1ccc(F)cc1
    -8%, -15%
Cc1[nH]n2c(=O)c3c(nc2c1-c1ccc(Cl)cc1)CCC3
    -3%, .
O=C(COc1ccc2c(c1)OCO2)Nc1cccc(F)c1
    -5%, ?
COc1ccc(-n2c(/C=C/c3cccc(C(F)(F)F)c3)nc3ccccc3c2=O)cc1Cl
    -26%, -12%
COc1cc(OC)c2c(c1)OC(c1ccc(OC)c(OC)c1)C(O)C2 (configuration not stated)
    -11%, i
N#Cc1c[nH]n2c(=O)cc(Cc3ccccc3)nc12
    -7%, -5%
COc1ccc(N2CCN(c3csc4ccc(Cl)cc4c3=O)CC2)cc1
    -19%, -22%
CCC1CCCCN1C(=O)CSc1nc2c(c(=O)n1C)SC(C)C2 (configuration not stated)
    -9%, -19%
O=S(=O)(NCC(c1cccnc1)N1CCN(c2ccccc2)CC1)c1cccs1 (configuration not stated)
    -7%, .
CC1CC(OCC(O)CN2CCCCC2C)CC(C)(C)C1 (configuration not stated)
    -24%, -25%
COc1nc(N)nc2nc[nH]c12
    -13%, i
CC1Cc2ccccc2N1C(=O)CN1CCC(n2nnc3cc(C(F)(F)F)ccc32)CC1 (configuration not stated)
    ?, -28%
CCOC(=O)c1c(NC(=O)CCNCc2ccco2)sc2c1CCC2
    -12%, -6%
COC(=O)C(C)c1ccc(C(=O)c2cccs2)cc1 (configuration not stated)
    -13%, -6%
CCOC1=C2[C@H](c3cccs3)N(S(=O)(=O)c3ccc(C)cc3)C[C@H]2n2c(=O)n(-c3ccccc3)c(=O)n2C1
    -16%, -1%
CC(C)C(NC(=O)CN1C(=O)c2ccccc2S1(=O)=O)C(C)C
    3%, i
CCOC(=O)C1=C(C)NC(C)=C(C(=O)OCC)C1C(=O)OCC(=O)NCc1ccccc1OC
    -19%, -29%

Two records drawn at random from those above:
Below each compound – VACV Venus inh, Vaccinia mCherry
Cc1cc(C)c(Cn2c(=O)n(-c3ccccc3Cl)c(=O)c3c(C)c(C(=O)N(C)C)sc32)c(C)c1
    -6%, -16%
CCn1c(SCC(=O)Nc2ccc(OC)c(OC)c2)nc2c(c1=O)SCC2
    -9%, -19%

Further entries.
Below each compound – VACV Venus inh, Vaccinia mCherry
O=C(CCCSc1ccc(Cl)cc1)Nc1ccccc1O
    -3%, ?
NC(=S)Cc1ccc(Cl)cc1Cl
    -18%, -25%
Nc1ccn([C@@H]2O[C@H](CNCc3cc(Br)ccc3OCc3ccccc3)[C@@H](O)[C@H]2O)c(=O)n1
    -8%, i
C=CCN(C(=O)c1csnn1)C(C(=O)NC1CCCC1)c1ccc(F)cc1 (configuration not stated)
    2%, -13%
Oc1ccccc1/C=N/Nc1ccccc1
    -23%, ?
Cc1ccc(-n2nc(C(=O)NC(C)C)c(=O)n(C)c2=O)cc1
    -7%, -7%
CCc1ccc2oc(C(=O)NCc3ccc(S(N)(=O)=O)cc3)c(C)c2c1
    1%, 2%
CCC(C)NC(=O)c1ccccc1NC(=O)c1ccccc1N(C)S(C)(=O)=O (configuration not stated)
    1%, 1%
CSc1ncccc1C(=O)N1CCN(S(=O)(=O)c2ccccc2)CC1
    -10%, -16%
Cc1ccc(S(=O)(=O)N2CCCCC2)cc1NC(=O)c1cccnc1
    -13%, -15%
COC(=O)COc1ccc(S(=O)(=O)Nc2ccc3c(c2)OCCO3)cc1C
    1%, -15%
C=CCN1C(=O)SC(Cc2cccc(OC)c2O)C1=O (configuration not stated)
    -1%, -20%
CC(C)CCNC(=O)c1sc2ccc(S(=O)(=O)N3CCCCC3)cc2c1N
    ?, ?
COc1cccc(N2CCN(C(=O)c3c4c(nc5ccccc35)C(=O)N(C3CCCCC3)C4)CC2)c1
    -10%, -19%
Cc1ccc(N(CC(=O)Nc2ccccc2-c2ccccc2)S(=O)(=O)c2ccccc2)cc1
    ?, .
O=C1C(c2cc(=O)c3ccccc3[nH]2)=C(O)c2ccccc21
    ?, ?
NC(=O)[C@H]1CC2(CC(c3cccc(NC(=O)CC(c4ccccc4)c4ccccc4)c3)=NO2)CN1C(=O)C(c1ccccc1)c1ccccc1 (some centres not stated)
    ?, -5%
Nc1ncnc2c1ncn2C1O[C@H](CO)[C@@H](O)[C@@H]1O (some centres not stated)
    -15%, -22%
CCCCn1c(=NC(=O)c2cccnc2)c(C#N)cc2c(=O)n3cccc(C)c3nc21
    -4%, 0%
CC(C)(C)NC(=O)COC(=O)c1ccc(Cl)c(S(N)(=O)=O)c1
    -5%, -12%

Rewritten with each value named: entries from further up.
SMILES: Cc1ccc(-n2nc(C(=O)NC(C)C)c(=O)n(C)c2=O)cc1
  VACV Venus inh = -7%; Vaccinia mCherry = -7%
SMILES: CC(C)CCNC(=O)c1sc2ccc(S(=O)(=O)N3CCCCC3)cc2c1N
  VACV Venus inh = ?; Vaccinia mCherry = ?
SMILES: CCCCn1c(=NC(=O)c2cccnc2)c(C#N)cc2c(=O)n3cccc(C)c3nc21
  VACV Venus inh = -4%; Vaccinia mCherry = 0%
SMILES: Nc1ccn([C@@H]2O[C@H](CNCc3cc(Br)ccc3OCc3ccccc3)[C@@H](O)[C@H]2O)c(=O)n1
  VACV Venus inh = -8%; Vaccinia mCherry = i

More structures
Below each compound – VACV Venus inh, Vaccinia mCherry
Cc1csc(NC(=O)CSc2nncn2C)n1
    -13%, .
CC(Sc1nc2ccccc2s1)C(=O)c1c(N)n(C)c(=O)n(C)c1=O (configuration not stated)
    -4%, -23%
CCNc1nc(Cl)nc(NNC(=O)C(C)Oc2ccccc2)n1 (configuration not stated)
    -17%, -5%
CCc1c(-c2ccccc2)nc2ccccc2c1C(=O)NC(C)c1ccccc1 (configuration not stated)
    -8%, -10%
CC(=O)Nc1ccc(NC(=O)Cn2c(=O)ccc3cc(S(=O)(=O)N4CCC(C)CC4)ccc32)cc1
    -5%, -20%
C=C1c2c(Cl)ccc(O)c2C(O)=C2C(=O)[C@]3(O)C(O)=C(C(N)=O)C(=O)C(N(C)C)C3C(O)C12 (some centres not stated)
    -23%, ?
COc1ccc(OCC(=O)Nc2ccc(S(=O)(=O)Nc3nc(C)cc(C)n3)cc2)cc1
    -15%, -2%
COc1ccc(C(C)=O)cc1CSCCC#N
    ?, .
CN(c1ccc(C(=O)N2CCOCC2)cc1)S(=O)(=O)c1cccs1
    6%, -1%
Cn1c(SCC(=O)Nc2ccc3c(c2)OCCO3)nnc1C1CC1
    -3%, -3%

Screening data: PubChem BioAssay, National Center for Advancing Translational Sciences (NCATS)
